# gsp ag – agonists of gsp mutant (McCune-Albright syndrome) | gsp mutant cells, cAMP HTRF, 30 min; control for the full effect not named in the record | Potency, µM (doses to about 76.9 µM), inactives show at the highest dose activation (cAMP increase), hits mostly activators | 340,000 compounds, 0.13% hits | AID 624287; active = well fitted activation curve with a large enough effect; inconclusive = small, poorly fitted or top-dose-only effect, or another doubt; inactive = no such curve, though single readings can be large or run the other way; cell line not stated here;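 also: phosphodiesterase inhibitor Ro 20-1724 added with compounds to block cAMP breakdown; potency is read from the fitted curve at half-maximal effect; nearly all actives have a fitted effect of over 60% in size; about a fifth of the inactives were tested at one dose only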
#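 Cells stably selected in G418 were plated at 2000/well, grown 16-24 hr, then given compounds in DMSO with the PDE inhibitor […] (300 uM solution added) for 30 min at 37C; cAMP was read by HTRF.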
# D2 ag – activates the human D2 dopamine receptor | activation, % (test concentration not listed) | DiscoveRx PathHunter D2 beta-arrestin, luminescence, 90 min; 100% = 57 uM dopamine signal | 360,000 compounds, 0.084% hits; in the data active = activation above about 40%; inconclusive = about 15% to 40%; inactive = below about 15%; also: compound concentration not given in the record; the text of the record calls up to 30% inactive
# Target sequence (P14416 whole entry, looked up): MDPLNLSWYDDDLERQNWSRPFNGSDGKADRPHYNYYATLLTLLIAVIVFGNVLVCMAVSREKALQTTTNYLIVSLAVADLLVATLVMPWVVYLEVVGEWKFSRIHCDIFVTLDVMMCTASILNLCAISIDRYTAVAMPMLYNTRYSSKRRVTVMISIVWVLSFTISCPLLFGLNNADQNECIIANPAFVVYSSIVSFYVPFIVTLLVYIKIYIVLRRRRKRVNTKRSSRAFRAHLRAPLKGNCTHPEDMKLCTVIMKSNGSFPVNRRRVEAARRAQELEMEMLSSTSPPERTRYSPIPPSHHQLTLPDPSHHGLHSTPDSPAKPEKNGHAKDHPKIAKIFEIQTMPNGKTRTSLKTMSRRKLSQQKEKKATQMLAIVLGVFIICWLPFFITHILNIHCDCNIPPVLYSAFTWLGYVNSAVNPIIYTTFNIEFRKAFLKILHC
#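 Agonist mode: compounds alone added to overnight-plated D2 PathHunter cells for 90 min at 37 C, with 57 uM final dopamine (EC100) defining full response. Beta-arrestin recruitment detected by chemiluminescent reagent, read after 1 h at ambient temperature.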
# gsp antag – gsp mutant antagonism | gsp-mutant cells, cAMP HTRF, 30 min; control for the full effect not named in the record | Potency, µM (highest dose often 76.9 µM), inactives show top-dose activity change, negative = inhibition, actives largely listed as inhibitors | 340,000 compounds, 0.4% hits | AID 624288; active = falling curve of any shape with a large fitted effect; inconclusive = falling curve, mostly with a smaller effect; inactive = flat or rising curve; cell line not stated here;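 also: intracellular cAMP measured with PDE inhibitor Ro 20-1724 present during compound exposure; potency is read from the fitted curve at half-maximal effect; % is scaled to controls: 0 for no effect and ±100 for the full control effect; nearly all actives have a fitted effect of over 65% in size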
#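 G418-selected cells were plated in DMEM/10% FBS for 16-24 h at 37C, then treated with compounds plus the PDE inhibitor […] (300 uM solution added) for 30 min at 37C. Intracellular cAMP was measured by HTRF after 30 min lysis at room temperature.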
# CtBP-E1A inh – inhibitors of CtBP/E1A interaction; AlphaScreen GST-E1A/His-CtBP binding, 1536-well; stronger effect = lower value; control for the full effect not named in the record; activity change, % (test concentration not listed); 340,000 compounds, 0.49% hits; AID 651724; in the data active means activity change below about -65%; inconclusive means about -30% to -65%; inactive means above about -30%; also: % is scaled to controls: 0 for no effect and ±100 for the full control effect
#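 Steps: dispense buffer (Tris pH 8.0, NaCl 300 mM, TCEP 1 mM, BSA, Tween 20); add 5X protein mix (GST-E1A, His-CtBP, 125 nM each); pin 23 nL compound; 2 h at 37 °C, dark; add 5X beads (50 ug/mL); 1 h; read.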
# D2 PAM – positive allosteric modulators of human D2 dopamine receptor; P14416; DiscoveRx D2 beta-arrestin cells, luminescence, 90 min; 100% = 57 uM dopamine signal; potentiation, % (test concentration not listed); 360,000 compounds, 0.23% hits; active = potentiation of 50% or more; inconclusive = 30% to 50%; inactive = 30% or less;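 also: compound concentration not given in the record; tested on top of an EC20 dose of dopamine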
#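 PathHunter D2 cells, attached overnight at 37 deg C, received compound in DMSO plus dopamine at EC20 (50 nM final) for 90 min at 37 deg C. Beta-arrestin recruitment was read as luminescence after 1 h with detection reagent at ambient temperature.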
# Six1-Eya2 blk – blocks human Six1 binding to Eya2 | Q15475+O00167 | AlphaScreen GST-Six1/His-Eya2 binding, biochemical; stronger effect = lower value; control for the full effect not named in the record | activity change, % (concentration not given with the values) | 360,000 compounds, 0.56% hits | AID 651725; in the data active = activity change below about -65%; inconclusive = about -30% to -65%; inactive = above about -30%; also: % is scaled to controls: 0 for no effect and ±100 for the full control effect
#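 GST-Six1 + His-Eya2 (5X stock: 250/500 nM); Tris pH 8.0, 300 mM NaCl, 0.05% BSA, 0.02% Tween 20; GSH donor/Ni acceptor beads; 1 h 37 °C dark; AlphaScreen readout.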
# * marks the source's active call; other numbers are inactive results; ? = inconclusive; . = not tested or not shown; [ ] = another dose, or the depositor's remark.
SMILES,gsp ag,D2 ag,gsp antag,CtBP-E1A inh,D2 PAM,Six1-Eya2 blk
C[C@@H]1CN([C@@H](C)CO)C(=O)CCCn2nncc2CO[C@@H]1CN(C)S(=O)(=O)c1ccc(Cl)cc1,-43%,-4.6,.,1,-1,8
O=C1N[C@@H](Cc2ccccc2)C(=O)N2[C@@H]1C[C@]1(Br)c3ccccc3N(S(=O)(=O)c3ccccc3)[C@H]21,10%,-4.3,-4%,2,-3,4
Cc1nc2ccc(C(=O)Nc3cccc(NS(C)(=O)=O)c3)cn2c1N(C)C(=O)CCc1ccccc1,.,2.1,.,-5,6,11
COC(=O)[C@H](CCSC)NC(=O)Cn1cnc2c(NCc3ccccc3)ncnc21,.,-3.1,3%,2,.,3
CCOC(=O)[C@H]1[C@H]2COc3ccc(Cl)cc3[C@@H]2N2C(=O)c3cc(C)ccc3NC(=O)[C@@]12C,-20%,-3.7,-18%,-5,-10,-9
COc1ccc(S(=O)(=O)c2ccccc2)cc1NS(=O)(=O)c1cccc(C(=O)O)c1,4%,-6.1,7%,2,-1,2
CCOC(=O)CSc1ccc(S(=O)(=O)N(CC)CC)cc1[N+](=O)[O-],23%,-4.1,-20%,-2,-2,-8
COc1ccc(NC(=O)c2c[nH]n3c(=O)cc(C4CCN(C(=O)OC(C)(C)C)CC4)nc23)cc1Cl,-73%[inhibitor],5.2,-16%,-2,-14,-3
NS(=O)(=O)c1ccc(Cl)cc1[N+](=O)[O-],9%,15,-4%,.,-9,15
C/C(=N\OCC(=O)Nn1c(C)nc2ccccc2c1=O)c1cccs1,?,-3.2,3%,-19,-12,-8
Cc1ccc(CS(=O)Cc2ccc(C(=O)NCCCc3ccccc3)o2)cc1 (stereo not given),?,2.0,.,-2,-6,-2
CCN(CC)CCn1c(=N)n(CC(O)COc2cccc(C)c2)c2ccccc21 (stereo not given),0%[15.4 µM],-2.5,12%,-6,-17,-6
Cn1c(=O)n(C)c2cc(C(=O)O)ccc21,13%[15.4 µM],-0.2,8%,0,-8,3
O=C(CNC(=S)N(Cc1ccccc1)Cc1cccnc1)NCCc1ccccc1,-6%[15.4 µM],-3.5,-12%,0,-15,-5
COc1ccccc1CC(=O)NNS(=O)(=O)c1cccc([N+](=O)[O-])c1,-35%[inhibitor],1.2,8%,0,-4,0
COc1cccc(CNC(=O)CSc2nnc3c(n2)[nH]c2ccccc23)c1,13%[15.4 µM],-4.0,-4%,0,-2,-4
COc1ccc(N(Cc2ccccc2)S(=O)(=O)c2cccc(C(=O)Nc3ncccc3C)c2)cc1,8%,-4.6,1%,.,-11,-1
O=C(c1ccc(F)cc1)n1c(=S)nc2ccccn21,-17%,-3.6,1%,7,0,7
C/C(=N/NC(=O)CNC(=O)c1ccncc1)c1ccc(Cl)cc1,-9%[15.4 µM],-1.7,4%,-1,-6,-2
CS(=O)(=O)N1CCN(c2ccccc2NC(=O)CSc2nnc(-c3ccco3)o2)CC1,19%,-0.6,-6%,1,-13,-5
COc1ccc(CCNC(=O)C(=O)NCC2OCCN2S(=O)(=O)c2ccc(Cl)cc2)cc1OC (stereo not given),8%,-5.6,-13%,0,-2,3
COc1ccc(C(OC(=O)c2ccco2)C(=O)NC2CCCC2)cc1 (stereo not given),10%[15.4 µM],-4.6,-1%,-6,-6,8
C=CCNc1nc(N2CCOCC2)c(C#N)c2c1CN(C)CC2,-29%,0.9,5%,-4,-1,-1
O=C(Oc1c(Cl)cc(Cl)c2cccnc12)N1CCCCC1,-12%,-4.1,-10%,-1,-13,1
N#Cc1ccccc1OCCn1cncn1,-4%,9.8,3%,.,-4,8

# Looked up above.
# For gsp antag, `COc1ccc(NC(=O)c2c[nH]n3c(=O)cc(C4CCN(C(=O)OC(C)(C)C)CC4)nc23)cc1Cl` reads -16%
# For gsp antag, `COc1ccc(S(=O)(=O)c2ccccc2)cc1NS(=O)(=O)c1cccc(C(=O)O)c1` reads 7%

# Additional results
SMILES,gsp ag,D2 ag,gsp antag,CtBP-E1A inh,D2 PAM,Six1-Eya2 blk
CC(=O)c1ccc(C(=O)N2CCc3c([nH]c4ccccc34)C2c2cccc(C)n2)s1 (stereo not given),-6%[15.4 µM],-3.8,-9%,-15,-8,-19
CCOc1ccc(NC(=O)CN(C)C(=O)CN2C(=O)C3CC=CCC3C2=O)cc1OCC (stereo not given),13%[15.4 µM],-3.2,-2%,1,-2,5
CCOC(=O)CN(C(=O)COc1nc(-c2ccccc2)cc(C)c1C#N)c1cccc(OC)c1,4%,-3.1,-15%,.,-7,7
CCc1c(C(C)=O)oc2ccc3c(C)cc(=O)oc3c12,10%[15.4 µM],0.7,1%,0,9,16
COc1ccc(NC2CCCN(C(=O)c3ccc(OC)o3)C2)cc1 (stereo not given),27%,-2.1,-1%,-9,20,-9
CSc1ncccc1C(=O)Nc1cccc(S(=O)(=O)N(C)c2ccccc2)c1,5%,-4.8,-19%,-20,-2,-3
CC1CN(C(=O)COC(=O)c2cc(Cl)ccc2[N+](=O)[O-])CC(C)O1 (stereo not given),-25%,2.9,-5%,-8,3,6
Cc1cc(C(C)(C)C)cc(S(=O)(=O)NCCc2ccncc2)c1C,16%,1.5,0%,.,2,5
O=C(Nc1ccccc1C(=O)N/N=C/c1ccc(O)cc1)c1ccccc1,-32%[inhibitor],0.9,?,4,5,1
COC(=O)C1=NN(c2ccccc2OC)C2C(=O)N(c3ccccc3OC)C(=O)C12 (stereo not given),-18%,-0.6,-1%,-6,-12,10
CCOC(=O)CN1C=C(c2ccc3ccccc3n2)C(C[N+](=O)[O-])c2ccccc21 (stereo not given),20%,2.3,5%,4,16,-1
O=C(N/N=C/c1ccc[nH]1)c1cccc(Br)c1,22%,-0.8,1%,2,-22,-3
Cc1noc(C)c1C(=O)OCC(=O)c1c(N)n(CC(C)C)c(=O)n(C)c1=O,32µM*,-2.7,20%,4,0,0
COc1ccc(Cc2c(-c3ccc(C)cc3)nc3c4ccccc4ccn23)c(C)c1,.,-5.6,.,-4,-5,-8
CCC(=O)N(C(=O)CC)N1CCN(c2ccncc2S(=O)(=O)N2CCCCC2)CC1,-1%,-5.6,-9%,-8,-11,-12
COc1ccc(CC(=O)Nc2cc(C)ccn2)cc1,0%,0.8,9%,5,-11,-2
O=C(Nc1nc(=O)c2ccccc2s1)c1ccc(Cl)cc1,?,-1.7,-9%,-4,2,2
O=C(NO)C1CC2C=CC1C2 (stereo not given),3%,1.1,-9%,8,5,5
Cc1cc(=O)n2c(ccc3ccccc32)c1C#N,12%,-1.6,1%,3,4,-2
COc1cccc2sc3cc(C#Cc4ccccn4)ccc3c(=O)c12,?,-2.3,-5%,-18,-8,-21
O=C([C@H](Cc1ccccc1)NS(=O)(=O)c1ccc(Cl)cc1)N1CC[C@@]2(O)CCCC[C@H]2C1,-16%,-0.1,-11%,6,4,5
Cc1cc(C)n(Cc2nc3ccccc3n2C)n1,-56%[inhibitor],-1.3,-7%,3,29,-2
Cc1ccc(CSCC(=O)Nc2ccccc2)cc1,-14%,4.3,4%,8,-2,5
O=C(NCCc1ccncc1)c1ccccc1F,?,-4.4,12%,0,6,-1
CCOC(=O)CCNC(=O)N1CCCC(CNS(=O)(=O)c2cccs2)C1 (stereo not given),7%,0.6,6%,.,-11,9

# 15 entries from above, arranged by SMILES length, ascending.
SMILES,gsp ag,D2 ag,gsp antag,CtBP-E1A inh,D2 PAM,Six1-Eya2 blk
O=C(NO)C1CC2C=CC1C2 (stereo not given),3%,1.1,-9%,8,5,5
O=C(NCCc1ccncc1)c1ccccc1F,?,-4.4,12%,0,6,-1
Cc1ccc(CSCC(=O)Nc2ccccc2)cc1,-14%,4.3,4%,8,-2,5
COc1ccc(CC(=O)Nc2cc(C)ccn2)cc1,0%,0.8,9%,5,-11,-2
CCc1c(C(C)=O)oc2ccc3c(C)cc(=O)oc3c12,10%[15.4 µM],0.7,1%,0,9,16
COc1cccc2sc3cc(C#Cc4ccccn4)ccc3c(=O)c12,?,-2.3,-5%,-18,-8,-21
Cc1cc(C(C)(C)C)cc(S(=O)(=O)NCCc2ccncc2)c1C,16%,1.5,0%,.,2,5
O=C(Nc1ccccc1C(=O)N/N=C/c1ccc(O)cc1)c1ccccc1,-32%[inhibitor],0.9,?,4,5,1
CSc1ncccc1C(=O)Nc1cccc(S(=O)(=O)N(C)c2ccccc2)c1,5%,-4.8,-19%,-20,-2,-3
COc1ccc(Cc2c(-c3ccc(C)cc3)nc3c4ccccc4ccn23)c(C)c1,.,-5.6,.,-4,-5,-8
CC1CN(C(=O)COC(=O)c2cc(Cl)ccc2[N+](=O)[O-])CC(C)O1 (stereo not given),-25%,2.9,-5%,-8,3,6
Cc1noc(C)c1C(=O)OCC(=O)c1c(N)n(CC(C)C)c(=O)n(C)c1=O,32µM*,-2.7,20%,4,0,0
CCC(=O)N(C(=O)CC)N1CCN(c2ccncc2S(=O)(=O)N2CCCCC2)CC1,-1%,-5.6,-9%,-8,-11,-12
CCOC(=O)CN1C=C(c2ccc3ccccc3n2)C(C[N+](=O)[O-])c2ccccc21 (stereo not given),20%,2.3,5%,4,16,-1
CCOC(=O)CN(C(=O)COc1nc(-c2ccccc2)cc(C)c1C#N)c1cccc(OC)c1,4%,-3.1,-15%,.,-7,7

# New compounds follow
SMILES,gsp ag,D2 ag,gsp antag,CtBP-E1A inh,D2 PAM,Six1-Eya2 blk
O=C(NCc1cccnc1)NC(=O)c1ccc(Cl)cc1,2%,3.0,6%,6,-11,9
CCOc1ccc(N(C(C)C(=O)NC(C)CC)S(C)(=O)=O)cc1 (stereo not given),24%,-1.6,-3%,2,2,4
CCN(CC)C(=O)c1[nH]cnc1C(=O)N[C@@H](CC(C)C)C(=O)OCc1ccccc1,1%,-2.7,-1%,.,-11,7
O=C(Oc1c(Cl)cc(Cl)c2cccnc12)c1cccc([N+](=O)[O-])c1,-31%[inhibitor],-6.3,8%,-98*,-48,-88*
CNC[C@@H]1Oc2c(NC(=O)Nc3ccc(F)cc3)cccc2C(=O)N([C@H](C)CO)C[C@@H]1C,.,-0.5,0%,1,-4,0
CCn1c(SCCN2CCOCC2)nc2c1c(=O)n(C)c(=O)n2C,29%[15.4 µM],-2.7,0%,6,-5,-8
Cc1cccc(CC2S/C(=N/c3cccc(C)n3)NC2=O)c1 (stereo not given),?,1.9,1%,4,-1,8
